Compound activity as filed in PubChem.
HNF4A DNA FP: change in binding of human HNF4A to DNA, primary screen, biochemical, fluorescence polarization, FITC-DNA. Hepatocyte nuclear factor 4-alpha (Homo sapiens), P41235. 1 h. activity change, % at 10 µM. hit rate 0.3% among 360,000; in the data active = activity change above about 30%, passing the limit was not always enough;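 note: controls were the assay level and a saturating level of protein; the project sought stronger binding though the title names inhibitors; some compounds called inactive have numbers as strong as hits; positive values seem to mean higher polarization but the record does not say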
UCH37 inh: inhibitors of human UCH37 deubiquitinase, primary screen, biochemical, Ub-AMC cleavage, fluorescence | Ubiquitin carboxyl-terminal hydrolase isozyme L5 (Homo sapiens), Q9Y5K5 | inhibition, % (test concentration not listed) | hit rate 0.33% among 330,000 | purified proteasome/UCH37;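 active = mean of two replicates above 20%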;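 note: 0% = compound-free wells with enzyme and 100% = wells lacking proteasome; stock transfer was 100 nL into about 20 µL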
Target sequence (Q9Y5K5 whole entry, looked up): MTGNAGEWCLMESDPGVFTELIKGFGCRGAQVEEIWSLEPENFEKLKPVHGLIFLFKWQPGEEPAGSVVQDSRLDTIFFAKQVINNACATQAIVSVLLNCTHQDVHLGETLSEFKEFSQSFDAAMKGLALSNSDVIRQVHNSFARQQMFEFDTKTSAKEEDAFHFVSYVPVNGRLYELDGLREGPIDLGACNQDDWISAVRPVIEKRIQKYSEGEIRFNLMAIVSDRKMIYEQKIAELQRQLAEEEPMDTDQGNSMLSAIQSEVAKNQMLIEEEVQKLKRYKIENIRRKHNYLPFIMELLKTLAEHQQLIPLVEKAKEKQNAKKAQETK
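Signal – fluorescence, ex 355 nm, em 460 nm · System – Proteasome-bound UCH37 · Input – 0.15 nM proteasome as dispensed · Timing – 30 min preincubation with enzyme, 25 min cleavage at room temperature · Read-out basis – percent inhibition of cleavage signal versus uninhibited and no-proteasome wells · Medium – Tris-HCl pH 7.4 with ATP-MgCl2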
B2AR ag: beta2AR agonists driving receptor internalization, primary screen, cell-based, FAP fluorogen, flow cytometry; Beta-2 adrenergic receptor (Homo sapiens), P07550; Am2.2-beta2AR cells; reference of the scale not given here; response, % (concentration not given with the values); hit rate 0.43% among 340,000; AID 504454, 2011;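 active = response above a set limit, near 3 SD of response in nonfluorescent compounds, cut at about 42% in these data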;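 note: stock transfer was 100 nL into about 11 µL; a reference agonist was the positive control; negative values mostly stem from fluorescent compounds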
Target sequence (P07550 whole entry, looked up): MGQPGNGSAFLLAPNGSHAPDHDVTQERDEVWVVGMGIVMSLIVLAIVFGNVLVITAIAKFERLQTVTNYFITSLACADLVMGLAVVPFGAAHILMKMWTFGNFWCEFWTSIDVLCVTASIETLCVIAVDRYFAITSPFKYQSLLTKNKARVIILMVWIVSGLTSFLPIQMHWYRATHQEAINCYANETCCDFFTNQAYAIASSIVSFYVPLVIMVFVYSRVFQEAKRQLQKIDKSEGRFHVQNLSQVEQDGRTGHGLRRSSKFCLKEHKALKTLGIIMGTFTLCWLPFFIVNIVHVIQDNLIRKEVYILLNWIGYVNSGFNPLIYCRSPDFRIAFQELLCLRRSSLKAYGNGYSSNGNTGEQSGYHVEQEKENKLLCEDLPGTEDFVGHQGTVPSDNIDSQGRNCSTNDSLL
LANA-H2B inh: blockers of LANA interaction with H2A/H2B – biochemical, FP readout, HTS, primary screen; cell-free LANA-H2A/H2B peptide, fluorescence polarization; inhibition, % (test concentration not listed); hit rate 0.6% among 320,000; in the data active = inhibition mostly above about 10%, no sharp cut-off; inactive = mostly below about 6.7%;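 note: stock transfer was 7.5 nL into about 10 µL; 0% = median of vehicle wells and 100% = median of positive control wells; one replicate is shown; the record names a cut of 25% in any replicate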
Ecoli growth: E. coli growth inhibition, primary screen, OD600. Escherichia coli growth, 23 h; active compounds read low. OD600 absorbance (test concentration not listed). hit rate 0.21% among 330,000;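 active = OD600 absorbance below the run mean of sample wells minus 3.6 SD, in any replicate, cut at about 0.56 in these data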;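 note: stock transfer was 300 nL into about 60 µL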
FGF22 binding: binders of human FGF22 protein, primary screen, FGF22 synaptogenesis inhibitor project, biophysical, thermal shift, single point. calls only at 9.99 µM. recombinant FGF22 thermal shift, SYPRO orange fluorescence; percent of sucrose octasulfate shift, DMSO zero. hit rate 1.5% among 340,000. AID 651658, 2012. Fibroblast growth factor 22 (Homo sapiens), Q9HCT0;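 active = melting point raised past a set limit in the mean and every replicate; three in four hits are not shown here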
Target sequence (Q9HCT0 whole entry, looked up): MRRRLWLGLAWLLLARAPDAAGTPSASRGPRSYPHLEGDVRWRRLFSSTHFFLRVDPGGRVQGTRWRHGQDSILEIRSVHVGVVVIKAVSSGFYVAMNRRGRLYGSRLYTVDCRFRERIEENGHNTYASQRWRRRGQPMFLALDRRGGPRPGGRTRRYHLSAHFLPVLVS
ALR inh: inhibitors of human ALR sulfhydryl oxidase, primary screen, biochemical, H2O2 detection, HRP-luminol luminescence, single point | purified ALR, DTT oxidation | AID 485317, 2010 | FAD-linked sulfhydryl oxidase ALR (Homo sapiens), P55789 | hit rate 3.8% among 290,000 | inhibition, % (no concentration beside the values);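 active = mean and each replicate at 75% or more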;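 note: stock transfer was 7.5 nL into about 7.5 µL; 0% = neutral wells and 100% = wells with inactivated enzyme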
The depositor's hits bear a star; i = inactive; . = not tested or not shown; + = active, no number. An excerpt; rates above refer to the full screens.

SMILES	HNF4A DNA FP	UCH37 inh	B2AR ag	LANA-H2B inh	Ecoli growth	FGF22 binding	ALR inh
O=C(O)[C@H](Cc1ccccc1)NC(=O)N1CCN(c2ccc(F)cc2)CC1	0.5	0.9	-2	3.0	0.68	i	98*
CC(=O)c1ccc(NC(=S)Nc2ccc(Br)c(Cl)c2)cc1	-0.3	9.4	8	36*	0.51*	+	.
O=C(CN1CCN(c2ccc(O)cc2)CC1)Nc1ccc2c(c1)OCCCO2	3.4	1.0	-1	-3.3	0.7	i	65
Cc1ccc(C)c(NC(=S)NNC(=O)c2csc3c2CCCC3)c1	-2.5	3.0	-10	.	0.73	.	.
CC(CNC(=O)c1cncc(O)c1)NC(=O)c1cncc(O)c1 (centres undefined)	-4.0	3.6	1	6.8	0.69	.	-16
COc1ccc(/C=N/NC(=O)c2ccc(=O)n(C)c2)cc1OC	-6.0	.	-3	2.0	.	i	-6
CCN1CCN(CCCNC(=O)c2cc3c(=O)[nH]c4ccccc4c3s2)CC1	-0.6	-146	-8	-1.1	0.62	.	-2
Cc1nn2c(CN(C(=O)c3ccco3)c3ccccc3)nnc2c2ccccc12	-2.0	1.7	-15	.	0.74	.	.
CCc1c(C)[nH]c2c(C)cccc2c1=O	0.1	-0.5	2	-3.0	0.75	.	-3
COCCN(Cc1cc2cc(C)ccc2n2nnnc12)C(=S)Nc1ccc(OC)cc1	-1.7	0.8	2	.	0.71	i	.
Cc1sc2ncn(CC(=O)NCC(=O)N3CCN(c4ccc(F)cc4)CC3)c(=O)c2c1C	0.7	-0.9	-5	2.6	0.7	i	-3
COCCN1C(=O)N(c2ccccc2)C(=O)C1CC(=O)Nc1cc(OC)cc(OC)c1 (centres undefined)	-4.6	0.5	7	0.7	0.65	i	-1
CCn1c(C)nc2cc(C(=O)NNC(=O)c3ccc(Cl)nc3)ccc21	-2.4	0.4	-6	0.7	0.64	i	-17
CCOc1ccc(N2C(=O)CC(S/C(N)=N/N=C/c3cccs3)C2=O)cc1 (centres undefined)	-2.1	.	1	-4.4	.	.	-4
Cc1cc(OCC(=O)Nc2cnn(CCCC(=O)O)c2)ccc1Cl	5.5	4.2	-3	-4.7	0.67	i	-23
CC(=O)c1c(C)[nH]c(C(=O)OCC(=O)Nc2sc3c(c2C#N)CCCC3)c1C	3.7	3.6	-1	-1.8	0.71	i	-1
Cc1ccc(S(=O)(=O)N2CCN(S(=O)(=O)N3CCOCC3)CC2)c(C)c1	-1.4	2.3	0	-2.7	0.65	.	-7
CC1CCc2nc(NC(=O)c3ccco3)sc2C1 (centres undefined)	-1.6	3.7	-3	2.6	0.71	.	3
Cc1cccc(NC(=O)COC(=O)CCc2ccc(S(=O)(=O)N3CCOCC3)cc2)c1C	-1.7	-0.5	-5	4.0	0.64	i	-2
CCCSC1=C(C#N)C(c2ccc(Cl)cc2Cl)CC(=O)N1 (centres undefined)	-0.9	-0.6	-5	0.1	0.69	.	-5
CCn1cc(C(=O)NCc2ccco2)c(=O)c2cc(S(=O)(=O)N3CCCC3)ccc21	-2.4	5.8	0	1.9	0.67	i	1
CC(=O)c1sc(Nc2cccc(C)c2)nc1C	1.7	-1.1	-1	5.3	0.63	i	-6
Cn1c(SCC(=O)Nc2cccc(C(=O)O)c2)nnc1-c1cc2cc(Br)ccc2o1	-0.4	1.3	-7	-1.2	0.68	i	-10
CC12CCC(=O)N1C(C(=O)Nc1ccc(F)c(Cl)c1)CS2 (centres undefined)	4.9	1.0	2	4.2	0.67	i	2
CCOC(=O)N=Nc1c(O)n(Cc2ccccc2)c2ccccc12	-3.0	0.8	1	3.0	0.69	i	-3

Looked up one by one from the entries so far:
SMILES	HNF4A DNA FP	UCH37 inh	B2AR ag	LANA-H2B inh	Ecoli growth	FGF22 binding	ALR inh
CC1CCc2nc(NC(=O)c3ccco3)sc2C1 (centres undefined)	-1.6	3.7	-3	2.6	0.71	.	3
Cc1nn2c(CN(C(=O)c3ccco3)c3ccccc3)nnc2c2ccccc12	-2.0	1.7	-15	.	0.74	.	.
O=C(CN1CCN(c2ccc(O)cc2)CC1)Nc1ccc2c(c1)OCCCO2	3.4	1.0	-1	-3.3	0.7	i	65
Cc1cccc(NC(=O)COC(=O)CCc2ccc(S(=O)(=O)N3CCOCC3)cc2)c1C	-1.7	-0.5	-5	4.0	0.64	i	-2
Cc1cc(OCC(=O)Nc2cnn(CCCC(=O)O)c2)ccc1Cl	5.5	4.2	-3	-4.7	0.67	i	-23

(cont.)
SMILES	HNF4A DNA FP	UCH37 inh	B2AR ag	LANA-H2B inh	Ecoli growth	FGF22 binding	ALR inh
COc1ccc(-c2cc(C(=O)N/N=C(\C)c3cccnc3)c3ccccc3n2)cc1	-4.8	.	1	8.5	.	i	4
O=C(Nc1ccc(F)c(F)c1)c1cnc(-c2ccccc2)nc1-c1ccccc1	-0.1	2.2	-8	-0.8	0.73	.	-6
CCOCCCNCc1cc(Br)ccc1OCC	-2.2	0.1	3	7.8	0.69	i	.
O=C(N1CCN(c2ncccn2)CC1)C12CC3CC(CC(C3)C1)C2	0.9	4.1	-12	-9.8	0.63	i	0
O=C(CSc1nc2ccccc2[nH]1)c1ccccc1F	1.3	3.9	-6	-1.3	0.65	i	-5
Cc1ccc(OCC(=O)Nc2ccc(N3CCN(C(=O)c4ccco4)CC3)cc2)cc1	1.3	1.2	10	0.0	0.69	i	2
COc1ccc(CC(=O)NC(c2ccccc2)c2ccccc2)cc1S(=O)(=O)N1CCOCC1	2.5	1.2	4	4.0	0.69	.	6
C[C@H](CO)N1C[C@H](C)[C@@H](CN(C)Cc2ccc(Cl)c(Cl)c2)Oc2c(NC(=O)C3CC3)cccc2C1=O	1.8	3.7	10	-6.3	.	i	-4
CC(C)NC(=O)C1COc2ccccc2O1 (centres undefined)	-1.9	2.0	-4	-1.6	0.7	i	-20
COC(=O)c1cnc(SCc2ccc(Cl)cc2)n1C	5.3	0.2	3	-4.1	0.67	i	-4
C=CCNC(=S)NNC(=O)COc1c(Cl)cc(Cl)cc1Cl	-0.7	1.0	2	3.6	0.64	.	.
CN1CCN(Cc2nc3ccccc3c(=O)n2Cc2nc(-c3ccccc3F)cs2)CC1	0.7	7.5	-9	0.8	0.69	.	.
COC(=O)CCN1CCC2CC1c1cc(Cl)ccc12 (centres undefined)	-0.2	.	-14	.	.	i	.
CCOC(=O)C1=C(CNCCc2ccc(Cl)cc2)NC(=O)NC1c1cccc([N+](=O)[O-])c1 (centres undefined)	0.5	6.5	-5	0.1	0.68	i	1
Cc1nc(SCC(=O)N2CCCCCC2)[nH]c(=O)c1C	-1.5	1.2	-1	-0.8	0.68	i	.
COc1cccc(C(=O)Nc2cc(C)nn2-c2ccccc2)c1OC	2.0	3.9	-2	-2.7	0.69	i	.
CCCCCc1nnc(N)s1	1.7	-0.5	0	1.2	0.71	.	-2
CCCCC(c1nnnn1CC1CCCO1)N1CCN(c2cccc(C)c2C)CC1 (centres undefined)	-1.9	2.5	-2	0.5	0.68	.	1
N#Cc1ccc(S(=O)(=O)N2CCN(C(=O)C3CC(=O)N(c4ccc5c(c4)OCCO5)C3)CC2)cc1 (centres undefined)	5.1	0.8	0	-2.5	0.72	i	-1
CCc1nc(SCC(=O)Nc2ccccc2Cl)n[nH]1	1.8	2.0	7	2.7	0.61	i	-2
CCOC(=O)c1c(C)[nH]c(C)c1S(=O)(=O)NC(C)Cc1ccco1 (centres undefined)	-75	1.3	-5	-1.0	0.72	i	-9
CCN(CC)C(=O)/C=C/c1ccccc1	-3.7	4.6	-2	4.4	.	i	-3
CC(=O)c1cccc(Nc2nc3ccccc3n3cnnc23)c1	1.6	1.9	8	3.6	0.63	i	-4
C=CCn1c(C(C)NC(=O)c2ccccc2C)n[nH]c1=S (centres undefined)	-2.6	1.2	13	0.2	0.69	i	64
CCn1cc(C(=O)NC(=S)Nc2sc3c(c2C(=O)OC)CCCCCC3)cn1	-2.8	4.5	7	.	0.69	.	.

(cont.)
SMILES	HNF4A DNA FP	UCH37 inh	B2AR ag	LANA-H2B inh	Ecoli growth	FGF22 binding	ALR inh
COc1ccc(/C=N/NC(=O)c2ccc(-n3cnnn3)cc2)cc1	1.1	.	-2	.	.	i	.
Cc1nn(CC(=O)N(C)C)c(=O)c2ccccc12	-0.4	4.4	0	2.9	0.66	.	-16
C/C(=N\OCC(=O)OC(C)C(=O)Nc1ccc(C(N)=O)cc1)c1ccc2c(c1)OCO2 (centres undefined)	2.1	.	5	-1.0	.	i	0
O=C(c1cccc([N+](=O)[O-])c1)N1CCN(C(=O)c2ccco2)CC1	-1.2	0.0	6	-2.7	0.68	.	2
CCc1cc2c(=O)n(Cc3ccco3)c(SCc3c(C)noc3C)nc2s1	1.1	4.6	3	-0.1	0.65	.	99*
COc1ccc(N(CC(=O)NCCc2ccccc2)C(=O)CCC(=O)Nc2nccs2)cc1	2.3	1.0	3	-1.7	0.7	i	-6
CCOc1ccc(CC(=O)N2CCN=C2SCc2ccc([N+](=O)[O-])cc2)cc1	2.6	3.9	3	-3.7	0.72	i	99*
Cc1c(NC(=O)Nc2ccc(Cl)cc2Cl)c(=O)n(-c2ccccc2)n1C	8.4	2.7	-7	-4.0	0.68	i	-1
COc1ccc(CNC(=O)CCCn2nc(C)n3c(cc4sccc43)c2=O)cc1	3.6	1.3	-12	-1.3	0.63	i	1
CCOC(=O)C1CCCN(C(=S)NC2CCCC2)C1 (centres undefined)	-0.1	3.1	1	8.5	0.7	i	-6
CCN1CCN(CCNC(=O)c2ccc(/C=C3/Sc4ccccc4N(Cc4cccc(C)c4)C3=O)cc2)CC1	3.2	-8.9	42	-1.1	0.62	i	-5
O=C(Nc1cccc(Br)c1)c1cc(=O)c2ccccc2o1	-1.8	-26	4	-2.5	0.7	i	.
Cn1c(N)c(C(=O)CSc2nc3ccccc3[nH]2)c(=O)n(C)c1=O	1.7	5.6	-18	3.2	0.69	i	13
CCCn1nc(C(=O)Oc2ccc3c(C)cc(=O)oc3c2)c2ccccc2c1=O	-3.9	i	2	-0.3	0.66	i	4
CCOC(=O)C1(C(F)(F)F)N=C(C(F)(F)F)Nc2cc(C)c(C)cc21 (centres undefined)	1.6	1.9	-1	-1.0	0.69	i	.
OC(CC1CC12c1ccccc1-c1ncccc12)(c1ccccc1)c1ccccc1 (centres undefined)	-3.3	14	7	-1.5	0.73	.	-1
Cc1csc(=Nc2ccccc2)n1CCCN1CCCC1=O	-9.8	4.8	4	-4.9	0.68	i	99*
O=C(CCc1ccccn1)N1CCCC(N2CCN(c3cccc(C(F)(F)F)c3)CC2)C1 (centres undefined)	-1.0	4.9	1	-3.2	0.65	i	-5
O=C(Cn1cnc2ccccc2c1=O)c1ccc(OC(F)F)cc1	-0.3	0.8	1	7.7	0.65	i	5
COc1ccc(CN2CCC(=O)NC2=O)cc1	1.6	2.9	3	4.8	0.65	.	-4
O=C(NCCO)c1ccc2nc(Cc3cccc(Cl)c3)oc2c1	0.0	2.3	-6	-3.1	0.65	i	.
Cc1ccc2[nH]c3c(c2c1)SC(C)(C)CC3=O	-4.5	-27	-2	5.3	0.73	i	18
Cc1ncn(C23CC4CC(CC(C4)C2)C3)n1	1.4	0.5	-2	2.9	0.69	i	-1

An excerpt from above, reduced to B2AR ag and UCH37 inh.
| smiles | B2AR ag | UCH37 inh |
| --- | --- | --- |
| CCN1CCN(CCNC(=O)c2ccc(/C=C3/Sc4ccccc4N(Cc4cccc(C)c4)C3=O)cc2)CC1 | 42 | -8.9 |
| O=C(Nc1cccc(Br)c1)c1cc(=O)c2ccccc2o1 | 4 | -26 |
